Screening data deposited in PubChem by Broad Institute.
Yeast UUG start: modulators of yeast start codon fidelity, primary screen, whole organism, S. cerevisiae, single point, plate reader; activity score, % at 18.7 µM; AID 602363, 2012; 350,000 compounds, 0.13% hits; S. cerevisiae UUG-firefly luciferase reporter, luminescence/redox ratio;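 active means replicate mean at a twofold rise or more, about +100% in these data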;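 further: firefly luciferase made from a UUG start codon reports start codon fidelity; reporter light over untreated wells divided by growth signal over untreated wells; some hits fall short of that in this replicate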
Env fusion inh: inhibitors of HIV-1 Env-driven cell-cell fusion, primary screen, HeLa-JRFL effector, CEM21 target cells, luciferase | inhibition, % at 12.3 µM | 360,000 compounds, 1.1% hits | AID 651610, 2012;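 active means mean replicate inhibition score of at least 50 and every replicate individually at or above 50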;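 further: 0% = plate neutral controls and 100% = maraviroc near 300 nM; one replicate is shown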
* hit, by the source's call; [ ] = dose if it differs, or a comment. These rows are one share of the data; rates above refer to the full screens.

SMILES	Yeast UUG start	Env fusion inh
C[C@H](CO)N1C[C@H](C)[C@@H](CN(C)C(=O)Nc2ccccc2F)OCc2cn(nn2)CCCC1=O	7	0
C/C=C/[C@@H](CCn1cc([C@H](O)c2ccccc2)nn1)[Si](C)(C)c1ccc(OC)cc1	-10	22[16.7 µM]
O=C(C[C@@H]1C[C@H]2c3cc(NC(=O)Nc4ccc(C(F)(F)F)cc4)ccc3O[C@H]2[C@H](CO)O1)NC1CCCCC1	9	-8[16.7 µM]
C[C@@H]1CN([C@@H](C)CO)C(=O)Cc2cc(NC(=O)Cc3cn(C)c4ccccc34)ccc2O[C@@H]1CN(C)S(=O)(=O)c1ccccc1	-6	25[16.7 µM]
Cc1noc(C)c1S(=O)(=O)Nc1ccc2c(c1)CC(=O)N([C@@H](C)CO)C[C@@H](C)[C@H](CN(C)C(=O)Nc1cccc3ccccc13)O2	-1	-3[16.7 µM]
C[C@H](CO)N1C[C@H](C)[C@@H](CN(C)S(C)(=O)=O)Oc2ccc(NS(=O)(=O)c3cn(C)cn3)cc2CC1=O	31	8[16.7 µM]
Cc1ccc(S(=O)(=O)Nc2ccc3c(c2)C(=O)N([C@H](C)CO)C[C@H](C)[C@H](CN(C)C(=O)NC(C)C)OCCCC[C@@H](C)O3)cc1	-4	33[16.7 µM]
CCCN(C)C[C@@H]1Oc2cc(C#CC(C)(C)O)ccc2S(=O)(=O)N([C@H](C)CO)C[C@@H]1C	-2	19[16.7 µM]
C[C@H](O)C#Cc1ccc2c(c1)O[C@@H](CN(C)C(=O)C1CC1)[C@H](C)CN([C@H](C)CO)S2(=O)=O	-4	-14[16.7 µM]
C[C@@H]1CN([C@H](C)CO)C(=O)c2cccc(NC(=O)C3CC3)c2O[C@H]1CN(C)C(=O)Nc1cccc2ccccc12	-9	20[16.7 µM]
C[C@@H]1CCCCO[C@H](CN(C)C(=O)C2CCCCC2)[C@H](C)CN([C@@H](C)CO)C(=O)c2cc(NC(=O)Nc3ccc(C(F)(F)F)cc3)ccc2O1	-18	3[16.7 µM]
COc1ccc(C#Cc2cnc3c(c2)C(=O)N([C@H](C)CO)C[C@@H](C)[C@@H](CN(C)C(C)=O)O3)cc1	10	8[16.7 µM]
C[C@@H]1CN([C@@H](C)CO)C(=O)Cc2cc(NC(=O)Nc3ccccc3)ccc2O[C@H]1CN(C)C(=O)Nc1ccc(C(F)(F)F)cc1	-5	7[16.7 µM]
COc1ccc(CN(C)C[C@H]2Oc3ccc(NC(=O)C4CCCCC4)cc3C(=O)N([C@@H](C)CO)C[C@@H]2C)cc1	-2	0[16.7 µM]
Cc1ccccc1S(=O)(=O)N1[C@@H](C#N)[C@@H](c2ccccc2)[C@@H]1CO	1	2[16.7 µM]
CCNC(=O)C[C@H]1C=C[C@@H](NS(=O)(=O)c2ccc(C)cc2)[C@@H](CO)O1	-16	-6[16.7 µM]
COc1ccc(S(=O)(=O)N(C)C[C@@H]2OCCCC[C@H](C)Oc3ccc(NS(=O)(=O)c4ccccc4)cc3C(=O)N([C@@H](C)CO)C[C@@H]2C)cc1	7	27[16.7 µM]
C[C@@H]1CN([C@@H](C)CO)C(=O)c2cc(C3=CCCC3)cnc2O[C@@H]1CN(C)C(=O)c1ccncc1	-15	-3[16.7 µM]
COCC(=O)N(C)C[C@H]1Oc2ncc(Br)cc2C(=O)N([C@@H](C)CO)C[C@@H]1C	-6	-12[16.7 µM]
C[C@@H]1CN([C@@H](C)CO)C(=O)c2cc(C#Cc3ccccn3)cnc2O[C@@H]1CN(C)C(=O)c1ccccn1	18	-2[16.7 µM]
C[C@@H]1CN([C@H](C)CO)C(=O)c2cc(-c3ccc(C#N)cc3)cnc2O[C@@H]1CN(C)C(=O)CN(C)C	-1	1[16.7 µM]
C[C@H](NC(=O)C[C@@H]1C=C[C@H](NC(=O)CN2CCOCC2)[C@@H](CO)O1)c1ccccc1	7	5[16.7 µM]
CCCNC(=O)Nc1ccc2c(c1)OC[C@H](C)NC[C@H](C)[C@H](OC)CN(C)C2=O	4	1[16.7 µM]
COc1ccc(S(=O)(=O)Nc2ccc3c(c2)CC(=O)N([C@@H](C)CO)C[C@H](C)[C@@H](CN(C)C(=O)Nc2c(C)noc2C)O3)cc1	-1	-46[16.7 µM]
C[C@H](CO)N1C[C@H](C)[C@H](CN(C)C(=O)NC2CCCCC2)Oc2ncc(-c3ccc(F)cc3)cc2C1=O	11	6[16.7 µM]
SMILES	Yeast UUG start	Env fusion inh
C[C@@H]1CN([C@H](C)CO)C(=O)c2cc(C#CCc3ccccc3)cnc2O[C@H]1CN(C)C(=O)C1CCOCC1	2	22[16.7 µM]
Cc1ccc(S(=O)(=O)Nc2ccc3c(c2)C(=O)N([C@@H](C)CO)C[C@H](C)[C@H](CN(C)CC2CCCCC2)OCCCC[C@H](C)O3)cc1	8	23[16.7 µM]
C[C@H]1CCCCO[C@H](CN(C)C(=O)Nc2ccccc2)[C@@H](C)CN([C@@H](C)CO)C(=O)c2cc(NC(=O)CCCN(C)C)ccc2O1	13	-8[16.7 µM]
CCNC(=O)C[C@H]1CC[C@H]2[C@@H](COc3ccc(NC(=O)Nc4ccc(Cl)cc4)cc3C(=O)N2C)O1	4	8[16.7 µM]
CCCC(=O)Nc1ccc2c(c1)C(=O)N(C)C[C@H](OC)[C@@H](C)CN(CCC)[C@H](C)CO2	0	16[16.7 µM]
CCCN1C[C@@H](C)[C@H](OC)CN(C)C(=O)c2ccc(NS(C)(=O)=O)cc2OC[C@@H]1C	5	6[16.7 µM]
C[C@H](O)C#Cc1ccc2c(c1)O[C@H](CN(C)C(=O)Nc1ccccc1)[C@H](C)CN([C@H](C)CO)S2(=O)=O	24	-115[16.7 µM]
Cc1ccc(S(=O)(=O)Nc2ccc3c(c2)C(=O)N([C@@H](C)CO)C[C@H](C)[C@H](CN(C)S(C)(=O)=O)OCCCC[C@@H](C)O3)cc1	49	2[16.7 µM]
C[C@@H]1CN([C@H](C)CO)C(=O)c2cccc(NC(=O)C3CC3)c2O[C@H]1CN(C)S(=O)(=O)c1ccccc1	-3	-13[16.7 µM]
COc1ccc(NC(=O)N(C)C[C@H]2Oc3ncc(C#CCN(C)C)cc3C(=O)N([C@@H](C)CO)C[C@@H]2C)cc1	-4	1[16.7 µM]
C[C@H](CO)N1C[C@H](C)[C@H](CN(C)S(=O)(=O)c2cn(C)cn2)Oc2ncc(C#Cc3cccc(F)c3)cc2C1=O	1	-14[16.7 µM]
CC(C)NC(=O)Nc1ccc2c(c1)C(=O)N([C@H](C)CO)C[C@@H](C)[C@@H](CN(C)CC1CCCCC1)O2	-2	-22[16.7 µM]
CC(C)NC(=O)Nc1ccc2c(c1)C(=O)N([C@@H](C)CO)C[C@H](C)[C@H](CN(C)C(=O)c1ccccc1)OCCCC[C@@H](C)O2	2	7[16.7 µM]
C/C=C/c1ccc2c(c1)O[C@@H](CN(C)C(=O)Cc1ccccn1)[C@H](C)CN([C@@H](C)CO)S2(=O)=O	0	12[16.7 µM]
C[C@@H]1CN([C@H](C)CO)C(=O)c2cc(N(C)C)ccc2O[C@H]1CN(C)C(=O)Nc1ccc2c(c1)OCO2	4	-7[16.7 µM]
C[C@@H]1CN([C@H](C)CO)C(=O)c2cc(NC(=O)Nc3ccc(C(F)(F)F)cc3)ccc2O[C@H]1CN(C)S(=O)(=O)c1ccc(F)cc1	-7	7[16.7 µM]
COc1ccc(S(=O)(=O)N(C)C[C@H]2OCCCC[C@H](C)Oc3ccc(NS(=O)(=O)c4ccc(C)cc4)cc3C(=O)N([C@H](C)CO)C[C@H]2C)cc1	-10	-6[16.7 µM]
C[C@H](CO)N1C[C@H](C)[C@@H](CN(C)C(=O)CN2CCOCC2)Oc2ncc(C3=CCCC3)cc2C1=O	35	6[16.7 µM]
COc1ccccc1CNC(=O)C[C@H]1C=C[C@@H](NC(=O)CC2CC2)[C@@H](CO)O1	2	-175[16.7 µM]
C[C@@H]1CCCCO[C@@H](CN(C)S(=O)(=O)c2ccc(F)cc2)[C@H](C)CN([C@@H](C)CO)C(=O)c2cc(NS(=O)(=O)c3cccs3)ccc2O1	-11	0[16.7 µM]
C[C@H](CO)N1C[C@H](C)[C@@H](CN(C)S(=O)(=O)c2cccs2)Oc2ccc(NC(=O)Nc3cccc4ccccc34)cc2CC1=O	-2	33[16.7 µM]
O=C(C[C@@H]1C[C@H]2c3cc(NC(=O)Nc4ccccc4F)ccc3O[C@H]2[C@@H](CO)O1)NCC1CC1	-11	5[16.7 µM]
Cc1noc(C)c1NC(=O)Nc1cccc2c1O[C@@H](CN(C)C(=O)Nc1c(C)noc1C)[C@@H](C)CN([C@@H](C)CO)C2=O	9	-18[16.7 µM]
O=C(Nc1ccc2c(c1)[C@H]1C[C@H](CC(=O)N3CCOCC3)O[C@@H](CO)[C@H]1O2)c1cccnc1	-24	6[16.7 µM]
O=C(C[C@H]1C=C[C@@H](NC(=O)NC2CCCCC2)[C@H](CO)O1)NCc1ccccc1	-9	10[16.7 µM]

Arranged by formula weight (largest number first): 9 of the compounds above.
SMILES	Yeast UUG start	Env fusion inh
COc1ccc(S(=O)(=O)N(C)C[C@H]2OCCCC[C@H](C)Oc3ccc(NS(=O)(=O)c4ccc(C)cc4)cc3C(=O)N([C@H](C)CO)C[C@H]2C)cc1	-10	-6[16.7 µM]
Cc1ccc(S(=O)(=O)Nc2ccc3c(c2)C(=O)N([C@@H](C)CO)C[C@H](C)[C@H](CN(C)S(C)(=O)=O)OCCCC[C@@H](C)O3)cc1	49	2[16.7 µM]
C[C@H](CO)N1C[C@H](C)[C@@H](CN(C)S(=O)(=O)c2cccs2)Oc2ccc(NC(=O)Nc3cccc4ccccc34)cc2CC1=O	-2	33[16.7 µM]
COc1ccc(NC(=O)N(C)C[C@H]2Oc3ncc(C#CCN(C)C)cc3C(=O)N([C@@H](C)CO)C[C@@H]2C)cc1	-4	1[16.7 µM]
C[C@H](O)C#Cc1ccc2c(c1)O[C@H](CN(C)C(=O)Nc1ccccc1)[C@H](C)CN([C@H](C)CO)S2(=O)=O	24	-115[16.7 µM]
CCNC(=O)C[C@H]1CC[C@H]2[C@@H](COc3ccc(NC(=O)Nc4ccc(Cl)cc4)cc3C(=O)N2C)O1	4	8[16.7 µM]
C[C@@H]1CN([C@H](C)CO)C(=O)c2cc(N(C)C)ccc2O[C@H]1CN(C)C(=O)Nc1ccc2c(c1)OCO2	4	-7[16.7 µM]
C/C=C/c1ccc2c(c1)O[C@@H](CN(C)C(=O)Cc1ccccn1)[C@H](C)CN([C@@H](C)CO)S2(=O)=O	0	12[16.7 µM]
CCCN1C[C@@H](C)[C@H](OC)CN(C)C(=O)c2ccc(NS(C)(=O)=O)cc2OC[C@@H]1C	5	6[16.7 µM]

(listing goes on)
SMILES	Yeast UUG start	Env fusion inh
COCC#Cc1cnc2c(c1)C(=O)N([C@H](C)CO)C[C@H](C)[C@H](CN(C)C(=O)c1ccc(F)cc1)O2	1	-7[16.7 µM]
C[C@H]1CN([C@@H](C)CO)C(=O)c2cc(-c3ccncc3)cnc2O[C@@H]1CN(C)C(=O)C1CC1	0	-17[16.7 µM]
C[C@@H]1CN([C@H](C)CO)S(=O)(=O)c2ccc(-c3cccc(C#N)c3)cc2O[C@@H]1CN(C)Cc1cccc(F)c1	-3	-1[16.7 µM]
CCS(=O)(=O)Nc1ccc2c(c1)C(=O)N(C)C[C@H](OC)[C@H](C)CN[C@H](C)CO2	-21	10[16.7 µM]
Cc1ccc(S(=O)(=O)Nc2ccc3c(c2)C(=O)N([C@H](C)CO)C[C@@H](C)[C@@H](CN(C)S(=O)(=O)c2ccccc2)OCCCC[C@H](C)O3)cc1	-10	-2[16.7 µM]
C[C@@H]1CN([C@H](C)CO)S(=O)(=O)c2ccc(-c3ccc(C(=O)N(C)C)cc3)cc2O[C@@H]1CN(C)C(=O)Cc1ccccn1	-2	-5[16.7 µM]
COc1cccc(-c2ccc3c(c2)O[C@@H](CN(C)C(=O)C2CC2)[C@H](C)CN([C@H](C)CO)S3(=O)=O)c1	1	0[16.7 µM]
Cc1cccc(S(=O)(=O)N(C)C[C@H]2OCc3cnnn3CCCC(=O)N([C@@H](C)CO)C[C@@H]2C)c1	-1	13[16.7 µM]
C[C@H]1CN([C@@H](C)CO)S(=O)(=O)c2ccc(C#Cc3ccccc3F)cc2O[C@H]1CN(C)CC1CCOCC1	14	0[16.7 µM]
COCC(=O)Nc1ccc2c(c1)[C@H]1C[C@@H](CC(=O)NCCc3ccccc3)O[C@@H](CO)[C@H]1O2	-4	4[16.7 µM]
C[C@@H]1CN([C@@H](C)CO)C(=O)Cc2cc(NC(=O)Nc3ccc(F)cc3)ccc2O[C@H]1CN(C)Cc1ccc(Oc2ccccc2)cc1	6	18[16.7 µM]
C=CCN1Cc2ccccc2C[C@@]2(COC(c3ccc(OCCCO)cc3)=N2)C1=O	3	-20[16.7 µM]
C[C@@H]1CN([C@H](C)CO)C(=O)c2cc(NS(C)(=O)=O)ccc2O[C@@H](C)CCCCO[C@@H]1CN(C)Cc1ccc(C(=O)O)cc1	14	-8[16.7 µM]
Cc1ccccc1-c1cnc2c(c1)C(=O)N([C@@H](C)CO)C[C@@H](C)[C@H](CN(C)C(=O)c1ccncc1)O2	3	-19[16.7 µM]
C[C@@H]1CN([C@H](C)CO)C(=O)Cc2cc(NC(=O)CCN3CCOCC3)ccc2O[C@H]1CN(C)C(=O)Nc1ccc2c(c1)OCO2	-1	13[16.7 µM]
COc1cccc(C#Cc2cnc3c(c2)C(=O)N([C@@H](C)CO)C[C@@H](C)[C@H](CN(C)C(=O)C2CCOCC2)O3)c1	14	0[16.7 µM]
